Compound activity as filed in PubChem.
miR-21 reporter: qHTS Assay for Modulators of miRNAs and/orActivators of miR-21; HeLa miR-21 FLuc reporter, luciferase, 48 h; 340,000 tested, under 10 active; Potency, µM (doses to about 38.3 µM), for the others: at the highest dose reporter change, positive = more light; active = well fitted rising curve with a large enough effect; inconclusive = small, poorly fitted or top-dose-only effect; inactive = no such curve, though single readings can be large or run the other way;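 further: % of control where 0% means no effect; miR-21 action dims this reporter so a rising signal means less miR-21 action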
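HeLa miR-21-FLuc reporter line, endogenous miR-21; 2000 cells/well in DMEM/10% FBS; compound titration up to ~40uM final, 48 h, 37 degree Celsius; luciferase detection reagent, 15 min lysis, CCD luminescence.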
Rango-impB inh: qHTS Assay for Inhibitors of Rango (Ran-regulated importin-beta cargo) - Importin beta complex formation; Importin subunit beta-1 (Homo sapiens), Q14974; Rango CFP/YFP FRET sensor + importin beta, 45 min; Potency, µM (series often up to 92.2 µM), for the others: top-dose inhibition of complex formation; 340,000 compounds, 0.031% hits; AID 540263, 2011; active = rising FRET ratio curve, often small or poorly fitted; inconclusive = mostly compound fluorescence or quenching in the first reads; inactive = flat curves in all reads;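 further: potency means the concentration at half of the fitted maximal effect; 0% = DMSO wells and 100% = buffer wells lacking importin beta; nearly all actives have a fitted effect of over 15% in size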
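FRET biosensor (snurportin 1 IBB flanked by EYFP and cerulean), 50 nM, with compound 5 min, then 0.125 microM importin beta in PBS, 1 mM DTT, 0.02% Tween-20, 0.1% BSA. CFP/YFP ratio read after 45 min at room temperature; pre-read flags interference.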
GLA inh pH 4.5: qHTS Assay for Inhibitors of Human alpha-Galactosidase at pH 4.5 | Alpha-galactosidase A (Homo sapiens), P06280 | purified enzyme, 4-MU-alpha-Gal fluorescence, pH 4.5 | activity change, negative = inhibition, % at 105 µM | 230,000 tested, under 10 active | AID 1467, 2008; inconclusive = small, poorly fitted or top-dose-only inhibition, or a rising curve; inactive = flat fitted curve, though single readings scatter; no compound was filed as active;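 further: 0% = full activity with enzyme and -100% = basal without enzyme; dose as in the result columns while the protocol names 77 µM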
Target sequence (P06280 whole entry, looked up): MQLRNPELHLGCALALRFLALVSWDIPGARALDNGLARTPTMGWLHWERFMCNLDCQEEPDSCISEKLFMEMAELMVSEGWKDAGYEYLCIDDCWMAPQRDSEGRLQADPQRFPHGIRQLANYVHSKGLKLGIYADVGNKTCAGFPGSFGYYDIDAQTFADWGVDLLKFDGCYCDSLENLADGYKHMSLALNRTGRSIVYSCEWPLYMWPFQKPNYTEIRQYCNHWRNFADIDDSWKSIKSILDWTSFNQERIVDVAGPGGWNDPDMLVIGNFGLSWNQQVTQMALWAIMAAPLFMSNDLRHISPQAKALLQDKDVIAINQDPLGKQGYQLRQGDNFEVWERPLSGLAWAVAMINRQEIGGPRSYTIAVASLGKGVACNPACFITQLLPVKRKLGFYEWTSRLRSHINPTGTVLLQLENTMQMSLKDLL
Rango dissoc inh: qHTS Assay for Inhibitors of RanGTP induced Rango (Ran-regulated importin-beta cargo) - Importin beta complex dissociation; Biochemical FRET Rango-importin beta, RanGTP-induced dissociation; Potency, µM (top dose mostly 46.1 µM), for the others: at the highest dose activity change, negative = inhibition; 340,000 compounds, 0.071% hits; Snurportin-1 (Homo sapiens) + GTP-binding nuclear protein Ran (Homo sapiens) + Importin …; AID 540253, 2011; active means falling FRET ratio curve, often poorly fitted, with flat reads before Ran was added; inconclusive means other falling curves, or compound fluorescence or quenching; inactive means flat or rising ratio curve;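 further: potency means the concentration at half of the fitted maximal effect; % of control where 0% means no effect; nearly all actives have a fitted effect of over 45% in size; -100% = wells without RanGTP and RCC1; the record marks most hits as doubtful in a second field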
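Rango (0.1 uM)–importin beta (0.25 uM) complex; RanGTP-RCC1 trigger; 45 min RT; CFP/YFP FRET read.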
Active calls of the source: *; ? = inconclusive; . = no result given. Only part of the results is shown; the hit share may differ from the screen's.

Results follow in this order: miR-21 reporter	Rango dissoc inh	Rango-impB inh	GLA inh pH 4.5
> Cn1cc(C=C2C(=O)CC(C)(C)CC2=O)c2ccccc21
→ -4%	13%	7.4%	-1
> CC(C)(C)c1ccc(C(=O)NCCOc2ccccc2)cc1
→ 7%	-4%	5.6%	.
> COc1ccc(/C=c2/sc3n(c2=O)NC2(c4ccccc4)N(C)C(=O)N(C)C2(c2ccccc2)N=3)cc1 (stereo unspecified)
→ -8%	16%	1.4%	-2
> CC(CCc1ccccc1)NC(=S)NC1CCCCC1 (stereo unspecified)
→ 1%	-3%	-0.3%	0
> CCN1CCN(c2ccc(N3CCN(S(=O)(=O)c4cc([N+](=O)[O-])ccc4C)CC3)nn2)CC1
→ .	6%	-0.6%	.
> Cc1ccc(S(=O)(=O)C2(C(=O)Nc3ccc(F)cc3)CC2)cc1
→ -7%	19%	1.9%	-1
> COCCNC(=O)CSc1nc2nn(-c3ccccc3)c(=O)c-2c2n1CCCCC2
→ -3%	-3%	-1.9%	-1
> Cc1cccn2cc(-c3cc4ccccc4oc3=O)nc12
→ -57%	-9%	-2.4%	-3
> O=C(Cn1nnc(-c2ccccc2)n1)N/N=C/c1cc([N+](=O)[O-])c(Cl)cc1Cl
→ 0%	5%	0.4%	-1
> CCOC(=O)c1[nH]c2c(OCC)nc(OCC)nc2c1Br
→ .	-13%	4.1%	.
> CCN(CC)C(=O)c1ccc2c(=O)n(Cc3cccc(Br)c3)c(=S)[nH]c2c1
→ -1%	-1%	0.3%	.
> COc1ccc(O)c(/C=N/NC(=O)CN2CCS(=O)(=O)CC2)c1
→ 1%	?	?	.
> O=C(NCc1nc2ccccc2[nH]1)C1=C[C@@H](c2ccc(C(F)(F)F)cc2)C[C@@H](OCCCCO)O1
→ .	1%	-0.8%	.
> CCc1ccc(OCC(=O)O/N=C(\N)c2ccncc2)c(Br)c1
→ -68%	?	0.1%	.
> COC(=O)c1c(C)nc(C)c(C(=O)OC)c1-c1ccsc1
→ 1%	6%	-0.4%	3
> COC(=O)c1sccc1NC(=O)Nc1ccccc1C
→ -5%	-6%	2.1%	.
> CSC1=Nc2sc3c(c2C2=NCCN12)CCCC3
→ -32%	.	.	0
> CCCCNC(=O)CSc1nc2ccc(NC(=O)CSc3nnc(N)s3)cc2s1
→ -15%	-4%	-4.0%	1
> CC(=O)NC(Cc1ccc(C(C)C)cc1)C(=O)NC1CCN(c2nc(C)cc(C)n2)CC1 (stereo unspecified)
→ 1%	18%	0.2%	-3
> NC(=O)NCC(=O)N1CCC(C(O)(c2ccccc2)c2ccccc2)CC1
→ 0%	6%	-0.3%	-12
> COc1ccc(-c2cc(C(F)(F)F)nc(S(=O)(=O)CCCC(=O)Nc3cccnc3Cl)n2)cc1OC
→ ?	-5%	-2.6%	-11
> CN(C)c1ccc(S(=O)(=O)N2CCCCC2)cc1NC(=O)CN1C(=O)NC(C)(c2ccccc2)C1=O (stereo unspecified)
→ .	-6%	-2.7%	.
> CSc1ccccc1NC(=O)c1ccc(N2CC3CC(C2)c2cccc(=O)n2C3)c(NC(=O)c2ccncc2)c1 (stereo unspecified)
→ -16%	-3%	1.8%	.
> Cc1ccc(S(=O)(=O)/N=C(\c2ccc(Cl)cc2)N2CCOCC2)cc1
→ 0%	-6%	-1.4%	9
> COc1ccc(/C=N/n2cncn2)cc1COc1ccc(NC(C)=O)cc1
→ -18%	-5%	0.8%	-2
> C[n+]1ccccc1C1CCCC/C1=N\Nc1ccc([N+](=O)[O-])cc1[N+](=O)[O-] (stereo unspecified)
→ 2%	1%	0.0%	-23
> CCCn1nnnc1SCC(=O)N(C(C)C)C(C)C
→ -7%	-10%	0.5%	-18
> CNC(=S)N1CCC(NC(=O)C(Cc2ccc(OC)cc2)NC(C)=O)CC1 (stereo unspecified)
→ 3%	-3%	0.3%	.
> O=C1c2ccccc2C(=O)N1Cc1nc2ccccc2c(=O)n1CCCn1ccnc1
→ -4%	-3%	2.3%	8
> O=C(O)CCC(=O)NNC(=O)c1cccs1
→ -10%	-2%	1.2%	10
> COC(=O)c1cc(NC(=S)NCc2ccc(Cl)cc2)cc(C(=O)OC)c1
→ 24%	8%	-0.1%	-7
> CN(C)c1cccc(C(=O)OCC(=O)N(C)c2ccccc2)c1
→ 0%	-1%	-0.2%	.
> O=C(CN(Cc1ccc(F)cc1)C(=O)CNS(=O)(=O)c1ccc(F)cc1)NCc1ccco1
→ 1%	-13%	?	.
> Cc1cccc(C)c1NC(=O)CNC(=O)CCC(=O)N1CCOCC1
→ .	17%	-1.9%	.
> COc1ccc(CCNC(=O)c2cc3c(=O)n4ccccc4nc3n(CCN3CCOCC3)c2=N)cc1
→ 8%	?	?	.
> Cc1ccc(SCCN2CCN(CC(C)C)CCC2=O)cc1
→ -36%	0%	-0.6%	-3
> CCn1cc(/C=C2\SC(=O)N(CC(=O)Nc3ccc4c(c3)OCO4)C2=O)c2ccccc21
→ 0%	2%	-0.7%	6
> Cc1ccc(S(=O)(=O)N(C)CCCC(=O)Nc2cc(C)ccc2C)cc1
→ 1%	24%	-8.9%	1
> OCC1(CCc2ccccc2)CCN(Cc2cccn2-c2cccnc2)CC1
→ -5%	-5%	5.9%	-15
> COc1cc2c(cc1OC)C1=C(C#N)CCC(=O)N1CC2
→ -21%	9%	0.7%	-8
> CS(=O)(=O)N1CCC(C(=O)c2cccc(Cl)c2)CC1
→ -2%	-20%	?	-1
> Cc1ccc(-c2nn(-c3ccccc3Cl)cc2C(=O)NCC2CCCO2)cc1 (stereo unspecified)
→ .	10%	0.7%	.
> Cc1ccc(S(=O)(=O)N2CCN(C(=O)CSc3nc(N)cc(=O)[nH]3)CC2)c(C)c1
→ -5%	-3%	2.2%	5
> CC(C)(C)NC(=O)Cn1c(SCC(=O)NC2CC2)nc2ccccc21
→ 2%	14%	0.3%	.
> COc1ccc(Nc2nc(C(F)(F)F)nc(C)c2C#N)cc1
→ -15%	10%	1.0%	-8
> O=C(CSc1nnc(C2CC2)n1-c1ccccc1)NCc1ccco1
→ 1%	-3%	0.0%	-5
> CC(=O)N1CCN(C(=O)CCN(c2ccccc2)S(=O)(=O)c2ccc(C)cc2)CC1
→ .	5%	-1.4%	.
> CC(=O)Nc1nc2ccccc2n1Cc1ccccc1Cl
→ 30%	1%	1.9%	-9
> C=CCc1cccc(/C=N/NC(=O)CNc2cccc3ccccc23)c1O
→ 29%	-14%	2.6%	2
> CCOC(=O)c1c(-c2ccc(F)cc2)csc1NC(=O)C1CCCO1 (stereo unspecified)
→ -6%	-7%	3.4%	-6

Additional entries follow.
Results follow in this order: miR-21 reporter	Rango dissoc inh	Rango-impB inh	GLA inh pH 4.5
> C=CCSc1nc2ccccc2c(=O)n1C1CCOC(C)(C)C1 (stereo unspecified)
→ -1%	-9%	0.0%	-1
> O=S(=O)(NCc1ccc(F)cc1)c1ccc2c(c1)OCCO2
→ -15%	12%	-4.6%	1
> CCn1c(SCC(=O)N2CCN(c3ccccc3)CC2)nc2c(c1=O)SC(C)C2 (stereo unspecified)
→ 1%	-7%	2.5%	3
> O=C(Nc1nc(-c2cccc3ccccc23)cs1)c1cnccn1
→ -8%	3%	-3.3%	0
> O=C(NCc1ccco1)Nc1ccc(OC(F)(F)F)cc1
→ -19%	-11%	-2.1%	-8
> Cc1ccc2c(c1)sc[n+]2Cc1ccccc1
→ -47%	18%	0.7%	-1
> CCOC(=O)c1cccc(NC(=O)CCNS(=O)(=O)c2ccc3c(c2)CCN3C(=O)CC)c1
→ 11%	-25%	-3.5%	-4
> S=c1[nH]c(-c2ccccc2)cn1/N=C/c1ccc(Br)cc1
→ 2%	?	?	10
> COc1cccc(CN2C(=O)[C@@H]3Cc4c([nH]c5ccccc45)C(C)(C)N3C2=O)c1
→ .	2%	3.4%	.
> Cc1cc(C(=O)CCl)c(C)n1Cc1ccco1
→ 18%	0%	0.8%	6
> COc1ccc2[nH]cc(CCNC(=O)C3CCCNC3=O)c2c1 (stereo unspecified)
→ 1%	14%	-0.7%	6
> Cc1ccc(N2C(=O)[C@@H]3[C@H](C2=O)[C@H]2C=C(C(=O)c4ccccc4)C=CN2[C@@H]3C(=O)c2ccc(Cl)cc2)cc1
→ -2%	0%	-1.0%	-10
> CCn1c(=O)c2cc(S(=O)(=O)NCc3ccccc3)ccc2n(CC)c1=O
→ 21%	22%	1.6%	-7
> O=C(c1ccsc1)N1CCCC(Nc2ccc(F)c(F)c2)C1 (stereo unspecified)
→ 2%	-5%	-0.1%	.
> CCOc1ccc(NC(=O)COC(=O)CNC(=O)c2ccc(-c3ccccc3)cc2)cc1
→ .	-12%	1.3%	.
> COc1cc(C(=O)Nc2nc(-c3ccc(F)cc3)cs2)ccc1OCC(=O)N1CCOCC1
→ 29%	-3%	2.9%	2
> CCN(CC)S(=O)(=O)c1ccc(/C=C/C(=O)OCC(=O)Nc2cccnc2Cl)cc1
→ .	4%	1.9%	.
> Clc1ccc(N=c2ssnc2Cl)nc1
→ -2%	?	-1.0%	-1
> Cc1cccc(Oc2ccccc2NC(=O)CN2C(=O)NC3(CCCC3)C2=O)c1
→ .	-4%	3.2%	.
> CCn1nnnc1SCC(=O)NCc1ccco1
→ 2%	-17%	0.4%	0
> COc1ccc(OCCCC(=O)OCC(=O)NNC(=O)c2ccc([N+](=O)[O-])cc2)cc1
→ .	7%	-0.7%	.
> CCCCC(c1nnnn1CC1CCCO1)N1CCN(c2cc(Cl)ccc2C)CC1 (stereo unspecified)
→ 22%	-18%	0.4%	-8
> CNC(=O)NC(=O)CSc1ncc(C(F)(F)F)cc1Cl
→ -6%	-5%	3.5%	-2
> O=C(C[n+]1ccc(CCSc2ccc(F)cc2)cc1)c1ccccc1
→ 1%	?	?	5
> CCCCC(CC)CO (stereo unspecified)
→ .	-3%	3.4%	.
> CCOc1cc2[nH]c(=S)n(Cc3ccc(C)o3)c(=O)c2cc1OCC
→ 0%	-20%	-0.5%	0
> CC1(C)CCCN(C(=O)c2ccc3c(c2NCCO)C(=O)c2ccccc2C3=O)C1
→ 7%	-5%	-1.1%	-4
> COc1cccc(C(=O)NNS(=O)(=O)c2ccc(F)cc2)c1
→ 1%	-6%	1.3%	.
> CCCOc1ccc(CSc2ncn[nH]2)cc1
→ -25%	-2%	1.0%	-3
> CCC1CCCCN1S(=O)(=O)c1c(C)n(C)c(=O)n(C)c1=O (stereo unspecified)
→ .	5%	1.5%	.
> COc1ccc([N+](=O)[O-])cc1N(CC1CO1)S(=O)(=O)c1ccc(C)cc1 (stereo unspecified)
→ 0%	8%	0.8%	4
> CN1CCN(c2ccc(CNS(=O)(=O)c3cccc(F)c3)cc2)CC1
→ -3%	4%	2.6%	-12
> CC(=O)Nc1cccc(OCCCOc2cccc([N+](=O)[O-])c2)c1
→ .	-12%	4.0%	.
> CS(=O)(=O)c1ccc(Cl)c(NC(=O)COC(=O)c2ccc(S(=O)(=O)N3CCCC3)cc2)c1
→ .	0%	-0.4%	.
> CC1CCCCC12NC(=O)N(CC(=O)N1CCN(C(=O)c3cccs3)CC1)C2=O (stereo unspecified)
→ .	15%	1.4%	.
> Cc1nnc(N2C(=O)C(O)=C(C(=O)c3ccco3)C2c2ccc(F)cc2)s1 (stereo unspecified)
→ 10%	?	-5.1%	-7
> C=CCn1c(SCC(=O)NC(=O)c2cccc([N+](=O)[O-])c2)nnc1-c1ccccc1
→ -1%	10%	1.5%	-1
